Screening results as filed in PubChem BioAssay.
Sa growth inh: S. aureus growth inhibition | AID 720641 | 170,000 compounds, 0.53% hits | relative growth, % (test concentration not listed) | S. aureus RN4220 growth, OD600, 20 h, 42 °C; hits give low values;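 active = growth at 42 °C up to 50% and 20 or more points under that at 30 °C, or under 10% at both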;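 note: 300 nL library stock went into each well; scaled to the means of positive and negative controls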
GIV-Gai inh: GIV-Galpha-i interaction inhibition. P08753. Galpha-i3/FITC-GIV peptide fluorescence polarization, 90 min; hits give low values; scaled: aluminum fluoride 0%, vehicle 100%. percent of control (FP), % (no concentration beside the values). 210,000 compounds, 0.42% hits. AID 1224905;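 active = replicate mean at 85% of control or lower, very high polarization wells dropped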;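 note: wells of about 15 µL received 100 nL stock; the first replicate is given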
Target sequence (P08753 whole entry, looked up): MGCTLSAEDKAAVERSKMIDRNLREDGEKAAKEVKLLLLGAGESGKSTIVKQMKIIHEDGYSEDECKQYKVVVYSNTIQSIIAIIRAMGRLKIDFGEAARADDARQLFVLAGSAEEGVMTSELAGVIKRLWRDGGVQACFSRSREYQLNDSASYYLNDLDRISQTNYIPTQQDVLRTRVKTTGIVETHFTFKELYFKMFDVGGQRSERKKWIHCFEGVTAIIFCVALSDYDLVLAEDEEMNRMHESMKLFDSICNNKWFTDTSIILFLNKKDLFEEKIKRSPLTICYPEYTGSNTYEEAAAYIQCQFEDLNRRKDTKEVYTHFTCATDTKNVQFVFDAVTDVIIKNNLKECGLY
HCMV UL50-53 inh: cytomegalovirus nuclear egress complex inhibition; HTRF UL50-UL53 interaction, normalized percent inhibition; inhibition, % (test concentration not listed); 190,000 compounds, 0.15% hits;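 active = both replicates at 50% or more, plus weaker picks with an unusually low signal ratio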;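 note: stock transfer was 100 nL into about 20 µL; 0% = negative control wells and 100% = wells with untagged competitor protein; inactives centre near -12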
Sa growth inh second temp: recorded beside Sa growth inh, whose call it bears; relative growth, %; measured here: growth at 30 °C;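 optical density after 20 h as mean of two plates; 100% = untreated growth and lower means inhibition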
An asterisk follows results filed as active; / = not tested or not shown; & = joins results of further samples.

Values run as follows: Sa growth inh, Sa growth inh second temp, GIV-Gai inh, HCMV UL50-53 inh
- COc1ccc(-c2c(C)oc3cc(OC(C)C(=O)O)ccc3c2=O)cc1OC (stereo not drawn)
  112.7, 93.2, 101.5, 1.8
- CC(C)CNC(=O)c1cccc(NC(=O)CC(C)C)c1
  101.3, 93.0, /, 4.6
- CS(=O)(=O)Nc1ccc(N2CCC(C(N)=O)(N3CCCCC3)CC2)cc1C(=O)O
  /, /, 99.3, -40.6
- CC(C)N(C(=O)CSc1nnc(Cn2nnc3ccccc32)n1C)C(C)C
  121.1, 92.3, 101.2, -2.5
- CN(CCCNC(=O)c1nnc(C(=O)Nc2ccccc2)s1)c1ccccc1
  /, /, 103.9, -14.6
- Clc1cc(Cl)cc(-c2ccc(CNCc3ccccn3)o2)c1
  /, /, 105.6, -21.1
- COc1ccc(Cl)cc1NC(=O)c1noc2c1CCc1ccccc1-2
  103.9, 93.0, 99.6, -9.2
- COc1ccccc1N1CCN(C(=O)c2cc(C)on2)CC1
  112.2, 84.8, 98.3, -8.9
- COc1ccc(C(=O)N(c2ccccn2)C2CCCCC2)c(OC)c1
  87.6, 86.6, /, -11.9
- CCCCC(=O)Nc1ccccc1C#N
  97.7, 103.6, 105.2, -4.5
- Cc1ccc(-c2cc3c(n2-c2ccc(C)cc2)CC(C)(C)CC3=O)cc1
  96.7, 94.0, 100.0, -8.4
- Cc1ccccc1NC(=O)OC1CCCCC1
  92.1, 82.2, /, -3.9
- Cc1cc(C)nc(N/C(=N/S(=O)(=O)c2ccc(Br)cc2)N2CCC(C)CC2)n1
  107.1, 94.2, 95.7, /
- COC(=O)c1c(F)c(F)c(Oc2ccc(Cl)cc2)c(F)c1N1CCCCC1
  94.7, 90.6, 96.8, /
- CCCn1c(CN2CCN(CC)CC2)nc2cc(NC(C)=O)ccc21
  /, /, 98.4, -3.6

As entered above:
For Sa growth inh, Cc1ccccc1NC(=O)OC1CCCCC1 has 92.1
For Sa growth inh second temp, COc1ccccc1N1CCN(C(=O)c2cc(C)on2)CC1 has 84.8
For Sa growth inh, COc1ccc(-c2c(C)oc3cc(OC(C)C(=O)O)ccc3c2=O)cc1OC (stereo not drawn) has 112.7
For Sa growth inh, CC(C)CNC(=O)c1cccc(NC(=O)CC(C)C)c1 has 101.3

More structures follow:
Values run as follows: Sa growth inh, Sa growth inh second temp, GIV-Gai inh, HCMV UL50-53 inh
- CCOC(=O)c1c(NC=O)sc2c1CCCC2
  77.5, 98.4, 101.0, -46.6
- CN1C(=O)CC(C(=O)Nc2ccccc2)SC1=Nc1ccc(Cl)c(C(F)(F)F)c1 (stereo not drawn)
  /, /, 103.5, -5.9
- O=C(c1cnc2ccccc2c1S(=O)(=O)c1cccc(F)c1)N1CCSCC1
  /, /, 104.9, -32.8
- Cc1ccc(NC(=O)C(Cc2ccccc2)N2Cc3ccccc3C2=O)cc1Cl (stereo not drawn)
  120.0, 97.9, 107.7, /
- O=C(Nc1nc2ccccc2[nH]1)c1ccc(F)cc1
  63.8, 48.9, 109.7, -0.8
- COC(=O)CN1C(=O)CSc2ccc(S(=O)(=O)NC3CCCCC3)cc21
  /, /, 105.0, 3.1
- COc1ccc(CCNC(=O)CCc2c(C)c3cc4c(C)c(C)oc4cc3oc2=O)cc1
  100.9, 93.3, 103.4, 5.5
- OC1C2CC3CC(C2)CC1C3 (stereo not drawn)
  86.7, 97.6, /, 6.6
- COc1ccc(CC(=O)Nc2ccc3nc(N4CCCCC4)cc(C)c3c2)cc1
  71.2, 88.4, 100.9, -13.1
- O=C(NCCN1CCCCC1)c1ccco1
  101.8, 84.8, /, -1.1
- O=C(c1cnc2ccccc2c1Nc1ccccc1Cl)N1CCOCC1
  /, /, 101.9, 9.2
- CC(C)NC(=O)c1ccc2c(Cl)c3c(nc2c1)CCCC3
  81.3, 92.3, 102.4, /
- COc1ccc2nc(N(Cc3cccnc3)C(=O)c3ccco3)sc2c1
  91.7, 88.3, 97.9, /
- Cc1nc2ccccc2c(=O)n1CC(=O)NC(N)=O
  92.8, 98.5, /, -20.5
- COc1ccc(N2CCN(C(=O)c3cn(CC(C)C)c(=O)c4c3c3ccccc3n4C)CC2)cc1
  97.2, 87.1, 105.4, -9.1
- Cc1ccc(C)n1CCN1CCN(C(=O)CC#N)CC1
  109.5, 79.4, /, -43.0
- Oc1ccc(CN2CCCC2c2ccc(Cl)cc2)cc1 (stereo not drawn)
  /, /, 107.6, 10.6
- Cc1cccc(N2C(=O)c3nccnc3C2=O)c1
  /, /, 103.4, -28.1
- Cc1cc(C)c2oc(C(=O)Nc3sc4c(c3C(=O)NCC3CCCO3)CCC4)cc(=O)c2c1 (stereo not drawn)
  /, /, 87.6, -12.7
- O=C(Cn1cnc2c(nnn2-c2cccc(Cl)c2)c1=O)OCc1ccccc1
  96.7, 82.3, 99.4, /
- CCC(=O)Nc1nc2ccc(CC(=O)Nc3ccc(OC)c(Cl)c3)cc2s1
  /, /, 105.2, -24.8
- Cc1ccccc1OCC(=O)Nc1ccc2nc(SCC(=O)N3CCOCC3)sc2c1
  110.2, 74.3, 100.5, -23.6
- COc1ccc(CNc2ccccc2C(=O)O)cc1OC
  106.4, 81.9, 107.4, 6.4
- COc1ccc(N2CC(NC(=O)C3CCCC3)CC2=O)cc1 (stereo not drawn)
  114.7, 88.1, 91.6&104.6, /
- COC(=O)c1sc(S(=O)(=O)N2CCN(c3ccccc3OC)CC2)c(C(=O)OC)c1C
  131.1, 91.1, 104.5, /
- COC(=O)c1ccccc1NC(=O)Nc1ccc(N2CCOCC2)c2nonc12
  105.4, 87.5, 148.0, -59.2
- O=C(NCCN1CCCCC1)C1CCCN(c2ccnc(-c3ccc(F)cc3)n2)C1 (stereo not drawn)
  /, /, 110.6, -17.6
- Cc1cccc(NC(c2cccc(F)c2)c2ccc3ccc(C)nc3c2O)n1 (stereo not drawn)
  95.9, 90.9, 106.4, /
- Cc1c(-c2ccccc2)sc(N)c1C(=O)N1CCCCC1
  131.7, 96.6, /, -35.3
- CCCCn1c(SCC(N)=O)nnc1-c1ccco1
  94.2, 111.7, 105.1, 3.2
- Cc1cccc(NC(=O)Cn2cnc3c(oc4ccccc43)c2=O)c1
  76.1, 75.6, 98.6, /
- CCOC(=O)CSc1nc(C)c2cc(OC)ccc2n1
  96.5, 94.3, 105.9, -17.4
- COc1cc(C(=O)Nc2ccccc2OCc2cc(=O)n3cc(C)sc3n2)cc(OC)c1OC
  98.4, 90.4, 105.7, 13.9
- CN(C(=O)C(C)(C)C)c1ccc(OCC(=O)N2CCCc3ccccc32)cc1
  124.4, 84.7, /, -30.4
- COC(=O)c1cc(OC)c(OC)cc1NC=C(C#N)C#N
  84.8, 82.5, 147.0, -35.5
- COC(=O)c1ccccc1NC(=O)c1noc2c1CCCC2
  93.1, 85.2, 97.2, -19.4
- CCC1CCCCN1CCCNC(=O)CN1C(=O)CSc2ccc(S(=O)(=O)N3CCC(C)CC3)cc21 (stereo not drawn)
  100.5, 99.5, 104.8, /
- O=C(CN1C(=O)COc2ccc(S(=O)(=O)N3CCCCC3)cc21)NCc1ccccc1Cl
  86.6, 75.6, 110.4, /
- Cn1c(=O)[nH]c(=O)c2c1ncn2CCCNC1=NCCCC1
  90.5, 96.7, /, 2.4
- O=C(c1ccc2nccnc2c1)N1CCc2ccccc2C1
  104.5, 99.2, 111.1, -36.7
- Cc1nn(-c2ccccc2)c(N)c1N=Nc1ccccc1OC(F)F
  56.2, 78.1, /, -24.6
- CCCCNc1nc(Oc2ccc(OCC)nn2)nc(N2CCOCC2)n1
  116.6, 89.0, 99.9, -18.1
- O=c1oc2c3c4c(cc2cc1-c1nnc(Nc2ccccc2)s1)CCCN4CCC3
  /, /, 215.5, 3.3
- Cc1ccc(-n2cc3c(c2-c2ccccc2Br)c(=O)n(C)c(=O)n3C)cc1N
  97.2, 61.5, 108.0, -5.5
- CCOC(=O)C1CCN(C(=O)C2CCCN(S(=O)(=O)c3cn(CC)cn3)C2)CC1 (stereo not drawn)
  /, /, 104.2, -17.4

Laid out differently: entries from further up
Molecule	Sa growth inh	Sa growth inh second temp	GIV-Gai inh	HCMV UL50-53 inh
CCOC(=O)CSc1nc(C)c2cc(OC)ccc2n1	96.5	94.3	105.9	-17.4
COc1cc(C(=O)Nc2ccccc2OCc2cc(=O)n3cc(C)sc3n2)cc(OC)c1OC	98.4	90.4	105.7	13.9

Further records:
Values run as follows: Sa growth inh, Sa growth inh second temp, GIV-Gai inh, HCMV UL50-53 inh
- O=C(Cn1c(=O)n(-c2ccc(F)c(Cl)c2)c(=O)c2sc3ccccc3c21)NC1CCCC1
  103.9, 83.2, 104.6, -16.4
- Cc1cc2c(cc1S(=O)(=O)NCc1ccc(F)cc1)OCCN2C
  120.5, 86.6, 102.7, /
- CC(C)(C)n1nc2c(c1NC(=O)/C=C\c1ccccc1)CS(=O)C2 (stereo not drawn)
  92.5, 79.4, 102.1, -28.4
- CCOC(=O)N1CCC(N(CCOC)C(=O)Nc2ccc(CC)cc2)CC1
  101.2, 90.9, 102.7, -17.3
- Cc1ccc2nc(COC(=O)CCCN3C(=O)c4ccccc4C3=O)cc(=O)n2c1
  103.1, 91.1, /, -9.4
- COc1cc2c(C(=O)N3CCC(Cc4ccccc4)CC3)cn(CC(C)C)c(=O)c2cc1OC
  /, /, 102.0, -27.4
- COc1ccc(C(=O)NCC(c2cccnc2)N2CCN(c3ccccc3OC)CC2)cc1 (stereo not drawn)
  92.5, 91.0, 106.7, -19.6
- CC(C)(C)c1ccccc1OCCCSC#N
  94.4, 76.2, 110.9, 4.0
- CCCC1NC(=O)N(CN(C)Cc2ccc(C)cc2)C1=O (stereo not drawn)
  115.3, 86.5, /, -33.2
- Cc1cc(C)c(S(=O)(=O)Nc2cc3c(cc2C)n(C)c(=O)n3C)cc1C
  /, /, 102.4, -33.8
- CCN(CC)C(=O)CSc1nnc(SCc2ccccc2)s1
  95.3, 87.2, /, -19.8
- CN(C)C(=O)c1cn(CCC#N)nc1-c1cccc2ccccc12
  107.6, 98.8, 99.9, /
- CCC1Sc2cc(S(=O)(=O)N3CCCc4ccccc43)ccc2NC1=O (stereo not drawn)
  94.2, 82.0, 100.1, /
- CCCn1c(=O)c2sccc2n2c(CCCC(=O)Nc3ccc(Oc4ccc(Cl)cc4)cc3)nnc12
  98.3, 104.7, 107.0, -0.6
- Cc1cc(NC(C)C)n2nc(-c3ccccc3)c(C)c2n1
  /, /, 110.0, -12.3
- N#Cc1ccc(Cn2c(CS(=O)(=O)c3ccccc3)nc3ccccc32)cc1
  105.8, 93.7, /, 6.0
- Cn1nnnc1SCCCNCc1ccc(Cl)cc1
  95.3, 88.4, 105.8, -19.5
- Cc1ccc(-n2nc3c(=O)n(CCCC(=O)NCCc4ccccc4Cl)nc(C)c3c2C)cc1
  96.4, 87.7, 100.2, /
- Cc1cccc(C(=O)NCC(=O)OCc2cccc(C(F)(F)F)c2)c1
  106.3, 93.5, /, -8.7
- O=C(CCCN1C(=O)CSc2ncccc21)NCc1ccc(Cl)cc1
  105.6, 77.5, 104.6&100.2, -15.0&-14.3
- CCc1ccc(OCC2c3cc(OC)c(OC)cc3CCN2C(=O)COc2ccccc2)cc1 (stereo not drawn)
  110.1, 73.5, 97.6, /
- Cc1ccc(OCC(=O)N(Cc2ccco2)Cc2ccc(C)o2)cc1
  104.2, 82.6, 100.5, -32.7
- CCCNC(=O)c1ccc2c(c1)N(Cc1ccccc1)C(=O)CS2=O (stereo not drawn)
  95.6, 92.2, 109.2&100.4, 10.0&-18.2
- O=c1cc(C(F)(F)F)cc[nH]1
  91.7, 104.5, 110.2, 14.5
- CCN(Cc1ccccc1)c1ccc(NS(=O)(=O)c2ccc(Br)cc2)cc1C(=O)O
  /, /, 93.2, -9.5
- CC(NC(=O)c1ccc2c(c1)CCN2S(C)(=O)=O)c1ccccc1 (stereo not drawn)
  103.0, 87.3, 103.1, -21.4
- CSc1ncc(Cl)c(C(=O)NCCc2ccc(S(N)(=O)=O)cc2)n1
  75.2, 83.7, 100.0, /
- Cc1c(C(=O)N2CCC(C)CC2)oc2ccc(S(=O)(=O)N3CCCCC3)cc12
  106.8, 83.7, 102.2, -23.0
- COc1ccc(-c2nc3ccccc3o2)cc1N
  106.4, 61.0, 102.3, -15.3
- Oc1c(C(Nc2ccccc2Cl)c2cccnc2)ccc2cccnc12 (stereo not drawn)
  /, /, 100.2, -49.3

4 of the entries above in order of their number in GIV-Gai inh, ascending.
mol	GIV-Gai inh
CCc1ccc(OCC2c3cc(OC)c(OC)cc3CCN2C(=O)COc2ccccc2)cc1 (stereo not drawn)	97.6
COc1ccc2nc(N(Cc3cccnc3)C(=O)c3ccco3)sc2c1	97.9
COc1ccc(Cl)cc1NC(=O)c1noc2c1CCc1ccccc1-2	99.6
O=C(c1ccc2nccnc2c1)N1CCc2ccccc2C1	111.1
